Screening results deposited in PubChem BioAssay by National Center for Advancing Translational Sciences (NCATS).
HSD17B inh: inhibitors of human HSD17B10 dehydrogenase; Q99714; recombinant HSD17B10, NADH fluorescence kinetic; many of its hits are not listed in these tables; Potency, µM (top dose mostly 57.1 µM), inactives show at the top dose activity change, negative = inhibition, usual class: inhibitors; 7.6% of 75,000 active; active means well fitted inhibition curve with a large enough effect; inconclusive means small, poorly fitted or top-dose-only effect; inactive means no such curve, though single readings can be large or run the other way;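 further: the protocol describes HADH2 (HSD17B10) and not the HSD17B4 of the title; nearly all actives have a fitted effect of over 70% in size; most hits overshoot -100% by far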
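His-tagged E. coli-expressed HADH2 at 20 nM in 100 mM Tris-HCl pH 9.0 with 0.01 % Tween-20, preincubated 15 min with compound at room temperature. Reaction with 1 mM NAD+ and 90 uM beta-hydroxybutyryl coenzyme A; NADH fluorescence (360/450 nm) read kinetically over 4 min, last minus first point.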
Numbers without * were called inactive; u = inconclusive; & = joins results of further samples; [ ] = remark or other dose. On the % scale 0 is the no-effect control and ±100 the full control effect; potency means the concentration at half of the fitted maximal effect. Only part of the results is shown (hit frequency here may not be typical).

structure | HSD17B inh
COc1cccc(N2CC(C(=O)OC(C)C(=O)c3ccccc3)CC2=O)c1 (stereo unspecified) | 7%
COc1cccc(/C=C/c2ccncc2)c1OC | u
COc1ccc(OC)c(S(=O)(=O)N2CCCCC2C(=O)N2CCN(c3ccccn3)CC2)c1 (stereo unspecified) | u
COC(=O)[C@@]1(Cc2ccc(F)cc2)[C@H]2c3cc(C(=O)N(C)C)n(Cc4ccc(O)c(OC)c4)c3C[C@H]2CN1C(=O)c1ccccc1 | -6%
Cc1ccc(-c2nc(C3CCCN(S(=O)(=O)c4ccc(C)cc4)C3)no2)cc1 (stereo unspecified) | 3%
CCOC(=O)C1=C(CS(=O)(=O)c2ccccc2)NC(=O)NC1c1ccccc1OCC (stereo unspecified) | -10%
Nc1c(C(=O)NCc2ccco2)nnn1Cc1ccccc1 | 5%
Cc1ccnc(NC(=O)Nc2cccc(F)c2)c1 | 2%
COc1ccc(NC(=O)CSc2nnc(CNC(=O)c3ccco3)n2-c2ccccc2OC)cc1 | 1%
Cc1ccc(C(=O)Nc2nnn(C)n2)cc1 | 9%
COC(=O)c1ccc(CSc2nc3scc(-c4cccs4)c3c(=O)[nH]2)o1 | 20µM*
CN1CCN(CC(=O)Nc2c(C(=O)C3CC3)oc3ccccc23)CC1 | -2%
Cc1nc(SCc2c(F)cccc2Cl)c2c(=O)n(C)c(=O)n(C)c2n1 | u
COc1ccc(S(=O)(=O)N(CC(=O)O)c2ccc(C)cc2)cc1 | 5%
O=C1C2CCCN2C(c2ccccc2F)N1c1ccc(Cl)cc1 (stereo unspecified) | -2%
Cc1noc(C)c1C(=O)Nc1cccnc1 | 7%
COc1ccc(CN2C(=O)C3C4C=CC(C4)C3C2=O)cc1 (stereo unspecified) | 10%
COc1ccc(S(=O)(=O)N2CCCC(C(=O)O)C2)cc1 (stereo unspecified) | 2%
Nc1ccc(C(=O)O)cc1 | 2%&5%
O=C(c1ccc(F)cc1)c1ccc(N2CCCC2)cc1 | -8%
COc1ccccc1N1CCN(S(=O)(=O)c2cccc3nsnc23)CC1 | -9%
CC(c1nnc(SCC(=O)c2c(N)n(C)c(=O)n(C)c2=O)n1-c1ccc(Cl)cc1)N(C)C (stereo unspecified) | 10%
O=C(Nc1nc2ccc(S(=O)(=O)N3CCCCC3)cc2s1)C1CCCO1 (stereo unspecified) | 3%
Cn1ncc(Cl)c1C(=O)Nc1cccnc1 | -7%
Cc1nc2cc(C(F)(F)F)ccc2n1C1CCN(C(=O)N2CCOCC2)CC1 | 0%
Cc1nc2ccc(CCO)cc2s1 | 1%
O=C(NCCN1CCOCC1)[C@H](Cc1ccccc1)N1C(=O)c2ccccc2C1=O | 8%
CCc1ccc2oc(-c3cccc(NC(=O)c4cccnc4)c3)nc2c1 | -5%
COc1ccc(CCN(C(=O)c2ccccc2)C2=CC3CCC(C2)N3C)cc1OC (stereo unspecified) | -3%
CCC1CCCCN1C(=O)c1cc2cc(Br)ccc2oc1=O (stereo unspecified) | 2%

Later entries:
structure | HSD17B inh
CC1=C(C(=O)OCC(C)C)C(c2cccc(F)c2)N2C(=O)C(C)SC2=N1 (stereo unspecified) | -10%
CCOC(=O)C1CCCN(c2c(Nc3cccc(C)c3)c(=O)c2=O)C1 (stereo unspecified) | -6%
c1ccc(Sc2ncnc3c2oc2ccccc23)nc1 | -5%
Cc1cccc(NS(=O)(=O)c2ccccc2)n1 | 25µM*
Cc1csc2nc(CNS(=O)(=O)c3ccc4c(c3)CCCC4)cn12 | 10%
Cc1ccc(C)n1-c1ncn[nH]1 | 10%
NCCSCCc1ccccc1 | 1%[11.4 µM]
CCCc1nc2sc3c(SCC(=O)NCc4ccco4)ncnc3c2c2c1CCC2 | -6%
O=C(CSc1nc2ccccc2o1)Nc1nc2c(s1)CCCC2 | -8%
CC1=CC(C)(C)Nc2ccc(OC(=O)CN3C(=O)CCC3=O)cc21 | u
CC(=O)Nc1nc(N2C(=O)c3ccccc3C2=O)n(-c2ccccc2)n1 | -4%
CCCCn1nnc(NC(=O)Cc2ccc(Cl)cc2)n1 | 4%
COc1ccc2cc(CN(C(=O)Nc3ccccc3OC)C3CCCC3)c(=O)[nH]c2c1 | -9%
Cn1c(CCNC(=O)c2ccccc2F)nnc1SCc1nc2ccccc2c(=O)[nH]1 | 4%
CCCCOc1ccc(S(N)(=O)=O)cc1 | 10%
CC(O)COc1ccc(/C(=N/O)c2ccccc2)cc1 (stereo unspecified) | -1%
COc1ccc(C(=O)COC(=O)CCn2nnc(-c3cccc(O)c3OC)n2)cc1 | 19%
COc1ccc(C(=O)N2CCC[C@@]3(CCN(c4ncccn4)C3)C2)cc1 | u
CSC1=NCCN1C(=O)Cc1ccc(Cl)cc1 | 6%
O=C(Nc1ccccc1F)c1ccncc1 | 6%
C=CCn1c(SCC(=O)c2cc(C)n(C(C)COC)c2C)nc2sc(C)c(C)c2c1=O (stereo unspecified) | -5%
CCOC(=O)c1cnc2c(C(F)(F)F)cccc2c1N1CCOCC1 | 20µM*
O=C(NCCN1CCOCC1)c1cc(-c2ccccc2)on1 | 13%
CCSc1nc(N2CCOCC2)c2c(c1C#N)CCCC2 | -17%
Cc1cc(N2CCCCC2)nc(SCC(=O)c2ccccc2)n1 | -2%
CNc1ncnc2ccc(-c3ccc4c(c3)OCO4)cc12 | -6%
CCOC(=O)C1C(=O)CC(C)(O)C(C(=O)OCC)C1c1ccccc1OC (stereo unspecified) | 7%
O=C1C(=O)N(CCN2CCOCC2)C(c2ccccn2)/C1=C(/O)c1ccc(Cl)cc1 (stereo unspecified) | -24%
Cc1nc2sccn2c1-c1csc(NCc2ccccc2)n1 | -2%
O=C(O)CCCC(=O)Nc1cccc(-c2nc3ccccc3[nH]2)c1 | u

The listing continues.
structure | HSD17B inh
CC(C)(C)NC(=O)c1ccc(COCC(F)(F)F)o1 | 8%
COC(=O)c1cnn(-c2ccc(C)c(C)c2)c1-n1cccc1 | -7%
CC(C)CCC(C(=O)O)C(C)CC(=O)NC1CCCCC1 (stereo unspecified) | -3%
Cc1cc(C)n(CCn2nc(C)cc2C)n1 | -1%
O=C(CN(Cc1ccco1)C(=O)Cn1nnc(-c2cccs2)n1)NCc1ccccc1 | -8%
O=C(NC1CCCCCC1)C1c2ccccc2C(=O)N1Cc1ccco1 (stereo unspecified) | 3%
O=C(CSc1ccc2nnc(-c3cccc(F)c3)n2n1)NCC1CCCO1 (stereo unspecified) | 25µM*
COc1cc2c(cc1OC)-c1cc(OCc3cccnc3)nc(=O)n1CC2 | 25µM*
O=c1[nH]ccc2c(O)cccc12 | 25µM*
COc1ccc(C(=O)N2CC(=O)N(CCc3ccccc3)C(=O)C2)cc1OC | 4%
Cc1ccc(Cc2cncc(O)c2)cc1S(=O)(=O)O | -3%
CCN(CC)S(=O)(=O)c1ccc(S(=O)(=O)Nc2ccc(C(=O)N3CCCC3)cc2)cc1 | -2%
COC(=O)CSc1nnc(CNc2ccc(OC)cc2)n1C | 2%
COc1ccc(OC)c(NC(=O)c2cc(-c3cc(Cl)ccc3O)n[nH]2)c1 | u
Cc1ccc(-n2nc(C(=O)N3CCN(C)CC3)c3c4ccccc4n(C)c3c2=O)cc1 | -8%
Nc1nnc(-c2ccc(F)cc2)s1 | 1%
CCCCC(=O)Nc1ccc(NC(=O)C(C)C)cn1 | 7%
COc1ccc(CC(=O)OCC(=O)Nc2ncc(Cl)cc2Cl)cc1 | 5%
Cc1cc(C)cc(N2C(=O)N(c3ccccc3C)C3CS(=O)(=O)CC32)c1 (stereo unspecified) | 5%
Cc1cc(O)c(C(C)C)cc1C1(c2cc(C(C)C)c(O)cc2C)OC(=O)c2ccccc21 | -1%[11.4 µM]
CCc1c(O)nc(SCC(=O)NCc2ccco2)[nH]c1=O | -4%
COc1ccc(CCNC(=O)C2CCCN(c3nn4c(=O)cc(C)nc4s3)C2)cc1OC (stereo unspecified) | -1%
O=C(O)Cn1c(CC(=O)N2CCCC2)nc2ccccc21 | 6%
CCS(=O)(=O)NCC(c1cccnc1)N1CCN(c2ccccc2F)CC1 (stereo unspecified) | 3%
COC(=O)C1=C(NC(=O)c2ccc(C)c(C)c2)CCS1 | -2%
Cn1c(=O)[nH]c(=O)c2c1nc(CN1CCN(c3ccc(F)cc3)CC1)n2CCCc1ccccc1 | -3%
O=C1OCCC1Sc1nnc(-c2ccc3c(c2)OCO3)n1-c1ccccc1 (stereo unspecified) | 9%
CCOc1ccc(N(CC(=O)NCCCOC)S(C)(=O)=O)cc1 | -1%
CCNC(=O)Nc1cc2nc(C)n(Cc3ccc(Br)cc3)c2nc1C | 7%
COCCNC(=O)c1ccc(N(C)S(=O)(=O)c2ccc(OC)c(OC)c2)cc1 | -3%

New compounds follow
structure | HSD17B inh
CCOc1ccccc1N=C1NC(=O)CS1 | 3%
Cc1cc(C)c2[nH]c(=O)c(C(c3nnnn3CC3CCCO3)N3CCC(C)CC3)cc2c1 (stereo unspecified) | 3%
Cc1cc(C)nc(NS(=O)(=O)c2cccs2)c1 | -14%
C[C@@H](c1ccccc1)N1C(=O)[C@H]2[C@H]3[C@H](O)[C@H](O)C/C(=N/OCc4ccccc4)[C@H]3CC[C@@H]2C1=O | 5%[11.4 µM]
CCCCOCCCNC(=O)c1ccccc1OCC | 1%
CC(CC1C(C#N)=C(N)SC(N)=C1C#N)c1ccccc1 (stereo unspecified) | u
OCCCN=C1CCCCC1 | -3%[11.4 µM]
Cc1ccc(Cl)cc1N1CCN(Cc2nc3c(c(=O)[nH]c(=O)n3C)n2CCc2ccccc2)CC1 | 3%
O=C(CC1COc2ccccc2O1)NCc1ccccc1 (stereo unspecified) | 6%
COC(=O)c1sccc1NC(=O)CN1CCN(c2ccc(F)cc2)CC1 | u
C=C(C)C1CC[C@]2(CO)CC[C@@]3(C)[C@H](CCC4[C@@]5(C)CCC(O)C(C)(C)C5CC[C@@]43C)C12 (stereo partly specified) | 2%
O=C(Nc1ccc(NC(=O)C2CC2)nc1)c1ccccn1 | -4%
CN(C)c1ncnc2ccc(-c3ccccc3C(F)(F)F)cc12 | -1%
CCC(=O)N1CCCc2cc(S(=O)(=O)N3CCN(c4ccccn4)CC3)ccc21 | -16%
CS(=O)(=O)c1ccc2nc(NC(=O)CN3CCCCCC3)sc2c1 | -8%
CCOc1ccc(C2C3=C(CCCC3=O)Nc3nc(C(F)(F)F)nn32)cc1OC (stereo unspecified) | 25µM*
COC(=O)c1c(NC(=O)c2c(C)noc2C)sc2c1CCCCCC2 | 1%
COC(=O)COc1ccc(S(=O)(=O)NCc2cccnc2)cc1 | 7%
Cc1sc2ncnc(Oc3ccc(-n4ccnc4)cc3)c2c1C | 8%
Cc1ccc2c(c1)NC(=O)C(CC(=O)NCCN(CC(C)C)CC(C)C)O2 (stereo unspecified) | 2%
OCCN1CCOCCN(CCO)CCN(CCO)CC1 | 13%
Cc1cc2c(c(=O)n1Cc1cccnc1)C(c1ccc(F)cc1)C(C#N)=C(N)O2 (stereo unspecified) | 0%
CCc1c(C)[nH]c2ccccc2c1=O | -12%
CCOC(=O)N1CCN(C(=O)CSc2nnc(C3COc4ccccc4O3)o2)CC1 (stereo unspecified) | -18%
COc1ccc(S(=O)(=O)N2CCC(C(N)=O)(N3CCCCC3)CC2)cc1 | -2%
Cc1oc(C(=O)O)cc1CSCc1ccoc1C(=O)O | u
Cc1nn(C)c(Cl)c1S(=O)(=O)N[C@@H](c1ccccc1)[C@]1(C)C[C@H]1[C@@H](C)C(=O)Nc1ccc2ccccc2c1 | -8%
CCNc1oc(COc2ccccc2F)nc1C#N | -5%
CC1C(c2ccccc2)N(C)CCC12NC(=O)NC2=O (stereo unspecified) | 7%
CCN1CCN(Cc2c(OC)ccc3ccccc23)CC1 | 1%

(next part)
structure | HSD17B inh
CN(C)c1ccc(Cc2ccc(N(C)C)cc2)cc1 | -4%
Cc1cc(C(F)F)n2nc(C(=O)Nc3cccc(C(F)(F)F)c3)nc2n1 | 6%
CCOc1cccc(Oc2ccc(C(F)(F)F)cn2)c1 | 7%
COc1ccc2[nH]cc(CCNc3ncnc4ccc(-c5ccc(C(=O)N(C)C)cc5)cc34)c2c1 | 5%
CC(=O)NS(=O)(=O)c1ccccc1 | -2%
COC(=O)c1c(C(=O)NCc2ccccc2)ncn1CC(O)COc1ccccc1 (stereo unspecified) | 9%
CCOc1ccc2[nH]c(=O)c(C(c3nnnn3C3CCCCC3)N3CCN(C)CC3)cc2c1 (stereo unspecified) | u
CC(=O)c1ccc(Nc2ncnc3c2oc2ccccc23)cc1 | -6%
Cc1c(-c2ccccc2)oc2cc(O)ccc2c1=O | -6%
CC(=O)Nc1cc(S(=O)(=O)C(F)(F)F)ccc1Cl | 3%

Fetched one by one from above, 7 records:
structure | HSD17B inh
Cc1c(-c2ccccc2)oc2cc(O)ccc2c1=O | -6%
CC(=O)Nc1cc(S(=O)(=O)C(F)(F)F)ccc1Cl | 3%
CC(=O)c1ccc(Nc2ncnc3c2oc2ccccc23)cc1 | -6%
COC(=O)c1c(C(=O)NCc2ccccc2)ncn1CC(O)COc1ccccc1 (stereo unspecified) | 9%
CCOc1cccc(Oc2ccc(C(F)(F)F)cn2)c1 | 7%
CN(C)c1ccc(Cc2ccc(N(C)C)cc2)cc1 | -4%
Cc1cc(C(F)F)n2nc(C(=O)Nc3cccc(C(F)(F)F)c3)nc2n1 | 6%
